ClpP mod – qHTS Assay for Activators of ClpP; ATP-dependent Clp protease proteolytic subunit (Bacillus subtilis (strain 168)), P80244; purified B. subtilis ClpP, FRET peptide cleavage, 20 min; Potency, µM (doses to about 57.5 µM), inactives show at the highest dose activity change, negative = active; 1.9% of 340,000 active; active = well fitted falling curve with a large enough effect; inconclusive = small, poorly fitted or top-dose-only effect; inactive = no such curve, though single readings can be large or run the other way; note: potency is the fitted concentration of half-maximal effect; the source files actives as falling curves though it sought activators and does not explain the sign; nearly all actives have a fitted effect of over 65% in size; many hits overshoot -100%
Target sequence (P80244 whole entry, looked up): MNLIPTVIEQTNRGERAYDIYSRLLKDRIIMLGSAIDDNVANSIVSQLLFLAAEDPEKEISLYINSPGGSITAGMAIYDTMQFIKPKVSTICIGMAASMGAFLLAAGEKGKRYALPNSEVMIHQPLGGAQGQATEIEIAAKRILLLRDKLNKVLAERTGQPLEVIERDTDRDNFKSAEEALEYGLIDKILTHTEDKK
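Purified B. subtilis ClpP, 10 microg/mL final in Tris/HCl pH8 with KCl, BSA, glycerol and Tween-20, cleaved an Abz/nitrotyrosine-quenched decapeptide. Fluorescence (ex 320, em 430) was read at 0 and 20 min at room temperature. Delta was normalized to 5.8 microM ADEP and DMSO/no-enzyme controls.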
Sfp inh – qHTS Assay for Inhibitors of Bacillus subtilis Sfp phosphopantetheinyl transferase (PPTase) | Biochemical Sfp PPTase activity, qHTS | Potency, µM, for inactives: max response, negative = inhibition, actives largely listed as inhibitors | 3.5% of 310,000 active | AID 1490, 2009; active = well fitted inhibition curve with a large enough effect; inconclusive = small, poorly fitted or top-dose-only effect, or another doubt; inactive = no such curve, though single readings can be large or run the other way;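 note: the enzyme is Sfp with the accession as filed and its product quenches rhodamine fluorescence; potency is the fitted concentration of half-maximal effect; 0% = enzyme reaction without inhibitor and -100% = no enzyme wells; top concentration of the series not given in the record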
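Fluorescence-quenching assay with 15 nM Sfp, 5 uM rhodamine-CoA and 12.5 uM BHQ-2-labelled ybbR peptide in pH 7.6 Hepes/MgCl2 buffer. Enzyme was pre-incubated with compound for 15 min at room temperature. Rate was taken from the 30-min fluorescence change (525/598 nm).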
D2 ag – Beta-Arrestin HTS for Positive Allosteric Modulators of the Human D2 Dopamine Receptor: Agonists; activation, % (test concentration not listed); 0.084% of 360,000 active; D(2) dopamine receptor (Homo sapiens), P14416; DiscoveRx PathHunter D2 beta-arrestin, luminescence, 90 min; 100% = 57 uM dopamine signal; in the data active = activation above about 40%; inconclusive = about 15% to 40%; inactive = below about 15%; note: compound concentration not given in the record; the text of the record calls up to 30% inactive
Target sequence (P14416 whole entry, looked up): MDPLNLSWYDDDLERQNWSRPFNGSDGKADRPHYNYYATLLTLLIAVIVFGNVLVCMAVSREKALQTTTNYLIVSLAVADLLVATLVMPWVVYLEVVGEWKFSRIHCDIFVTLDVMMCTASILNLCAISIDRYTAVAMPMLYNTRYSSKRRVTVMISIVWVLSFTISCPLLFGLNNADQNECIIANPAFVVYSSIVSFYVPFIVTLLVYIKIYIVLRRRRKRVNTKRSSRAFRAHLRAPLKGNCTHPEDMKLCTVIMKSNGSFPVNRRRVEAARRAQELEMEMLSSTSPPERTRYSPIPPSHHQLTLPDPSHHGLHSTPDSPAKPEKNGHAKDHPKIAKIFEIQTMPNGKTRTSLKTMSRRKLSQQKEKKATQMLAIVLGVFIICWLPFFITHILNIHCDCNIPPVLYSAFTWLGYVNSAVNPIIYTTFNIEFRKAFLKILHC
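DiscoveRx PathHunter D2 beta-arrestin cells (2,100/well) attached overnight, then compound-stimulated 90 min at 37 C in HBSS/10 mM HEPES/0.1% Tween-20 buffer; beta-galactosidase complementation read by luminescence after 1 h at ambient temperature. Dopamine 57 uM final (EC100) as control.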
gsp agonist – qHTS for Agonist of gsp, the Etiologic Mutation Responsible for Fibrous Dysplasia/McCune-Albright Syndrome: qHTS; gsp mutant cells, cAMP HTRF, 30 min; control for the full effect not named in the record; Potency, µM (series often up to 76.9 µM), without a hit: at the top dose activation (cAMP increase), usual class: activators; AID 624287, 2012; 0.13% of 340,000 active; active = well fitted activation curve with a large enough effect; inconclusive = small, poorly fitted or top-dose-only effect, or another doubt; inactive = no such curve, though single readings can be large or run the other way; cell line not stated here;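 note: phosphodiesterase inhibitor Ro 20-1724 added with compounds to block cAMP breakdown; potency is the fitted concentration of half-maximal effect; nearly all actives have a fitted effect of over 60% in size; about a fifth of the inactives were tested at one dose only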
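Cells stably selected in G418 were plated at 2000/well, grown 16-24 hr, then given compounds in DMSO with the PDE inhibitor […] (300 uM solution added) for 30 min at 37C; cAMP was read by HTRF.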
gsp antag – qHTS for Antagonists of gsp, the Etiologic Mutation Responsible for Fibrous Dysplasia/McCune-Albright Syndrome: qHTS; 0.4% of 340,000 active; Potency, µM (highest dose often 76.9 µM), for the others: at the top dose activity change, negative = inhibition, most hits filed as inhibitors; AID 624288, 2012; gsp-mutant cells, cAMP HTRF, 30 min; control for the full effect not named in the record; active = falling curve of any shape with a large fitted effect; inconclusive = falling curve, mostly with a smaller effect; inactive = flat or rising curve; cell line not stated here;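 note: intracellular cAMP measured with PDE inhibitor Ro 20-1724 present during compound exposure; potency is the fitted concentration of half-maximal effect; % is set by controls: 0 for no effect and ±100 for the full control effect; nearly all actives have a fitted effect of over 65% in size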
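HTRF cAMP read-out (cAMP-d2 plus anti-cAMP antibody-K in lysis buffer, 30 min RT). Before lysis, cells are exposed to compounds with […] for 30 min at 37C in DPBS containing Ca/Mg, BSA and Tween 20.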
Menin-MLL FL inh – qHTS Assay for Inhibitors Targeting the Menin-MLL Interaction in MLL Related Leukemias: Competition With Fluorescein Labeled MLL-derived Peptide. Fluorescence polarization, fluorescein-MLL peptide displacement from menin. FP activity change, % at 61.4 µM. AID 1766, 2009. 290,000 tested, under 10 active; inconclusive = falling polarisation curve, or a change in total fluorescence; inactive = total fluorescence flat and polarisation flat or rising; no compound was filed as active; the % refers to the polarisation; negative = inhibition;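 note: % of control where 0% means no effect; inhibitors lower the polarisation; unlabelled MLL peptide was the positive control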
PINK1 expr mod – A Quantitative High throughput Screen to Identify Chemical Modulators of PINK1 Expression; AID 624263, 2012; Potency, µM (top dose mostly 76.6 µM), for the others: at the highest dose activation (PINK1 increase), usual class: activators; PINK1 immunofluorescence, high-content cytometry, 24 h; 0.2% of 410,000 active; active = well fitted activation curve with a large enough effect; inconclusive = small, poorly fitted or top-dose-only effect; inactive = flat fitted curve, though single readings scatter; cell line not stated here;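 note: potency is the fitted concentration of half-maximal effect; % of control where 0% means no effect; nearly all actives have a fitted effect of over 65% in size; a mitochondrial uncoupler was the plate control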
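Stable cell line treated 24 h with compounds at 5 concentrations (CCCP controls), then fixed and immunostained for PINK1 plus nuclear and cell stains; PINK1 immunofluorescence quantified by laser-scanning microplate cytometry.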
The depositor's hits bear a star; ? = inconclusive; nt = no result given; [ ] = remark or other dose.

The opening two records as a preview:
SMILES	ClpP mod	Sfp inh	D2 ag	gsp agonist	gsp antag	Menin-MLL FL inh	PINK1 expr mod
COc1cccc(C=O)c1OC(=O)N1CCOCC1	nt	-1%	-3.8	?	4%	3.6	0.0%
O=C(Cc1ccccc1Cl)NC1(O)C(=O)c2ccccc2C1=O	nt	7%	-11	-2%[15.4 µM]	7%	0.6	1.2%

The listing, from the start:
SMILES	ClpP mod	Sfp inh	D2 ag	gsp agonist	gsp antag	Menin-MLL FL inh	PINK1 expr mod
COc1cccc(C=O)c1OC(=O)N1CCOCC1	nt	-1%	-3.8	?	4%	3.6	0.0%
O=C(Cc1ccccc1Cl)NC1(O)C(=O)c2ccccc2C1=O	nt	7%	-11	-2%[15.4 µM]	7%	0.6	1.2%
O=c1c2ccccc2nc(CSc2nnnn2-c2ccccc2)n1-c1ccccc1	1.4%	-5%	-9.2	-5%[15.4 µM]	7%	3.7	-0.6%
CCCn1c(/N=C/c2ccc3c(c2)OCO3)nc2ccccc21	-6.2%	8%	0.5	-33%[inhibitor]	7%	-0.8	4.9%[38.3 µM]
CN(C)c1ccc(-c2cc(NC=O)c3ncc(-c4ccc(F)c(Cl)c4)n3c2)cc1	-18%	nt	4.4	nt	nt	nt	5.4%
O=C1OC(Nc2ccc(Br)cc2F)c2ccccc21 (configuration not stated)	-2.0%	-6%	-1.4	18%	11%	0.6	?
CCOc1ccc(C(=O)NCC(=O)NCC(c2cccs2)N2CCOCC2)cc1 (configuration not stated)	nt	nt	0.0	-5%[15.4 µM]	-8%	nt	0.7%
CCOC(=O)CNC(=O)c1sc(NC(=O)c2cccc(F)c2)nc1C	2.2%	3%	-4.7	12%	15%	2.4	-1.9%
COc1ccc(Cn2c(=O)c3c(nc(NCCO)n3C)n(C)c2=O)cc1	3.5µM*	12%	-6.3	-35%[inhibitor]	10%	-2.4	-2.5%
COc1cc(OC)c2c(=O)c(O)c(-c3ccc(OC)c(OC)c3)oc2c1	nt	16%	nt	nt	nt	0.9	5.1%
NS(=O)(=O)c1ccc(Cl)c(C(=O)Nc2ccccc2[N+](=O)[O-])c1	nt	0%	-14	23%[15.4 µM]	8%	5.6	-0.8%
S=c1[nH]nc(COc2ccc3ccccc3c2)o1	-2.0%	0%	-1.8	-3%	-16%	-0.1	-1.2%
O=C1CN(c2nc3nonc3nc2N2CCCCC2)CCN1	0.0%	-2%	-1.0	?	9%	-0.2	-0.5%
COc1ccc(S(=O)(=O)N2CCOCC2)cc1C(=O)Nc1ccc2c(c1)OCO2	-8.7%	-4%	-4.3	-6%	-3%	-9.8	?
Cc1cc(C(=O)N/N=C/c2c[nH]c3ccccc23)c(C)o1	-0.5%	6%	0.3	-5%[15.4 µM]	-9%	4.5	5.7%
CC(C)Cn1c(N)c(C(=O)CSc2ncccn2)c(=O)n(C)c1=O	-2.4%	nt	2.2	9%[15.4 µM]	-12%	nt	-1.1%
COc1cccc(C(=O)Nc2sc(C(C)C)cc2C(N)=O)c1OC	-13%	-1%	4.8	7%	?	0.0	-1.3%
Cc1ccc(CNC(=O)c2sc3nc4c(c(C(F)(F)F)c3c2N)CCC4)cc1	-3.7%	10%	-3.0	-24%	5%	1.1	3.1%
N=C1C(c2ccccc2)=C(O)CN1c1cccc2ccccc12	nt	8%	-0.7	-2%[15.4 µM]	-30%	5.1	0.9%
CCSc1nnc(-c2ccncc2)n1Cc1ccccc1	-3.2%	-1%	0.6	1%	9%	3.9	-7.4%[38.3 µM]
C/C(=N/O)c1ccc(Oc2cnccn2)cc1	nt	-43%	-2.2	-3%[15.4 µM]	9%	-0.3	0.2%
CN(C)c1ncc2nc(-c3cc(F)cc(F)c3)c(=O)n(CCC#N)c2n1	nt	9%	nt	nt	nt	?	0.9%
Cc1cc(C)c(NC(=S)NC(=O)c2c(Cl)c(C)nn2C)c([N+](=O)[O-])c1	0.0%	-15%	1.6	17%[15.4 µM]	?	-0.2	-1.6%
Cc1ccc(NC(=O)CN2CCC(NC(=O)c3ccccc3F)CC2)cc1C	-2.8%	0%	0.9	-2%	5%	-12	-2.2%
COc1ccc(CC(=O)Nc2sc3c(c2C#N)CC(C)(C)NC3(C)C)cc1OC	-1.4%	20%	-6.1	2%	0%	1.3	0.0%
New compounds follow:
SMILES	ClpP mod	Sfp inh	D2 ag	gsp agonist	gsp antag	Menin-MLL FL inh	PINK1 expr mod
COc1cc(OC)cc(C(=O)NCC(=O)OC(C)C(=O)NC(C)C2CC3CCC2C3)c1 (configuration not stated)	1.1%	nt	-1.3	-9%[15.4 µM]	3%	nt	3.1%
O=C(COC(=O)c1ccco1)NCc1ccc(Cl)cc1Cl	0.0%	nt	-7.4	1%[15.4 µM]	4%	nt	-0.4%
CCCCn1c(CCCNC(=O)CC)nc2ccccc21	1.0%	?	-5.3	-31%[inhibitor]	2%	-1.2	4.0%
CC(=O)CCc1c(C)nc2ccc(C)cc2c1Cl	nt	-1%	-1.4	4%[15.4 µM]	-5%	-3.9	0.6%
COC(=O)c1ccc(CN2CCCC(CNC(=O)Cc3ccc(OC)cc3)C2)cc1 (configuration not stated)	2.2%	13%	-3.2	0%	6%	7.2	0.4%
COc1ccc(C2CC(C(F)(F)F)n3ncc(C(=O)NCC4CCCO4)c3N2)cc1OC (configuration not stated)	-0.1%	13%	-2.2	12%	5%	-28	-0.1%
Cc1ccccc1NC(=O)C1CCC(=O)N1 (configuration not stated)	nt	7%	7.9	-23%	15%	-6.1	0.4%
Cc1nn(Cc2ccccc2)c(C)c1/C=N/NC(=O)c1ccccc1O	-7.6%	11%	2.1	14%	-18%	0.2	-0.2%
Cc1onc(-c2ccccc2)c1C(=O)c1c[nH]c(C(=O)NCCCN2CCOCC2)c1	nt	20%	-4.6	-12%[15.4 µM]	?	-1.6	1.0%
Cc1ccc(NC(=O)Cc2ncon2)cc1Cl	nt	10%	-0.2	-16%[15.4 µM]	-3%	1.3	0.3%
Cc1ccc(S(=O)(=O)CCSc2nccn2C)cc1	nt	-5%	-4.4	-4%	0%	6.0	-0.4%
Cc1ccc([C@@H]2CC=C(C(=O)O)[C@H](c3cccc(F)c3)N2S(=O)(=O)c2ccccc2C)cc1	3.7%	nt	-0.1	nt	-9%	nt	-1.2%
O=C(NC1CC1)C(=O)c1c[nH]c2ccccc12	0.8%	5%	2.8	?	-10%	-15	1.4%
Cc1ccsc1/C=N/NC(=O)c1nnn(-c2nonc2N)c1-c1ccccc1	-2.7%	24%	-3.9	-27%	?	nt	-0.7%
O=C(Nc1ncc(S(=O)(=O)c2ccc([N+](=O)[O-])cc2)s1)c1cccnc1	3.1%	5%	?	5%[15.4 µM]	-41%	4.7	2.2%
Cn1c(=O)c2c(nc(NCc3ccc4c(c3)OCO4)n2Cc2ccccc2)n(C)c1=O	-7.4%	18%	2.5	21%	-1%	3.2	4.7%
CCOC(=O)C1CCCN(CC(=O)Nc2c(F)c(F)c(F)c(F)c2F)C1 (configuration not stated)	-1.2%	9%	-4.5	25%	-3%	1.8	-1.9%
Cc1cccc(COc2ccccc2C(=O)OCC(=O)N(C)c2c(N)n(Cc3ccccc3)c(=O)[nH]c2=O)c1	-5.2%	10%	-4.5	-3%	-8%	nt	7.1%
O=C(N/C(=C\c1ccc(Br)cc1)C(=O)N1CCOCC1)c1ccc([N+](=O)[O-])cc1	nt	18%	1.6	0%[15.4 µM]	nt	-0.1	-0.1%
COc1cc(OC)cc(OC(=O)c2ccc3c(=O)n4c(nc3c2)CCC4)c1	nt	nt	-3.5	5%[15.4 µM]	7%	nt	4.8%
CC1(C)CSC(=NCc2ccccc2)N1C(=O)c1cccc([N+](=O)[O-])c1	-18%	-2%	-6.5	-9%	-18%	8.2	-1.0%
CC(=O)c1cnn(-c2cc(Oc3ccc(F)cc3)ncn2)c1C	-2.0%	-2%	-1.9	-26%	-7%	1.3	2.9%
CC(OC(=O)c1cccc(-n2cnnn2)c1)c1nc2ccccc2c(=O)[nH]1 (configuration not stated)	-4.8%	nt	0.1	?	3%	nt	1.4%
CCC(NC(=O)c1cc(COc2ccc(F)cc2Cl)on1)c1ccncc1 (configuration not stated)	-3.1%	-2%	1.4	-19%	-5%	-0.8	-1.3%
COc1ccc(S(=O)(=O)N2CCOCC2)cc1NC(=O)/C=C/c1ccc(F)cc1	?	nt	-2.2	-15%	-5%	nt	0.2%
Next part
SMILES	ClpP mod	Sfp inh	D2 ag	gsp agonist	gsp antag	Menin-MLL FL inh	PINK1 expr mod
CCC(=O)c1ccc(OCC(=O)NCCc2ccccn2)cc1	nt	-1%	2.0	?	3%	-0.5	-0.6%
O=C(Nc1ccc(Cl)cc1F)C1CC(=O)N(Cc2ccco2)C1 (configuration not stated)	-4.6%	nt	-1.6	-3%[15.4 µM]	3%	nt	-1.8%
CCOC(=O)C1(Cc2ccccc2Cl)CCN(C(=O)c2cnccn2)CC1	nt	8%	-1.7	9%[15.4 µM]	2%	-4.5	2.9%
CC(=O)c1sc(NC(=O)c2cccc(C)c2)nc1C	nt	18%	-0.1	-13%[15.4 µM]	-2%	0.9	7.5%
Cc1nnc(Nc2ccccc2)n(N)c1=O	-1.2%	15%	-0.6	2%	10%	0.5	0.5%
COc1cc(N=c2ssnc2Cl)cc(OC)c1OC	-3.2%	14µM*	-1.0	-9%	-2%	0.7	3.8%
COCCNCC(=O)NC12CC3CC(CC(C3)C1)C2	0.5%	21%	0.2	-2%	-10%	0.3	-0.3%
CCN(CC)CCN(C(=O)CCOc1ccccc1)c1nc2ccc(F)cc2s1	0.3%	0%	-2.8	18%	2%	1.7	?
